Screening data from PubChem.
HSV replic up: HSV replication enhancement; HSV replication augmentation in cells, fold increase; AID 1956; 0.005% of 220,000 active; maximum fold increase;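 active = peak rise of 1.5-fold or more in the series; tested in PC3 cells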;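 note: first round at 10 µM; read as green reporter fluorescence; hits show the peak of a series up to 25 µM; 1 = signal of infected wells without compound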
RGS16-Gao: regulators of human RGS16-Galphao interaction; binding response (% of control), % at 10 µM; AID 1441; bead-based flow cytometry RGS16-Galphao binding, fluorescence; actives lie on both sides; O15492+P09471; 0.38% of 220,000 active;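 active = below 25% or above 175%, edge rows of some plates excepted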;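 note: Galphao activated by GDP with aluminum fluoride before binding; 100% = wells without compound and 0% = beads without RGS; some results beyond the cut were filed as inactive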
GALR2 ag: agonists of human galanin receptor 2 (GALR2). O43603. activation, %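 (tested at 5 µM)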. 0.48% of 140,000 active. GALR2-expressing cells, agonist activation read-out. AID 803;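 active = above mean plus 3 SD of all compounds, about 5% in these data, not always enough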;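 note: 0% = vehicle buffer wells and 100% = reference agonist at full effect; tested in CHO reporter cells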
PKD1 inh: inhibitors of human PKD1 kinase; 0.056% of 200,000 active; Q15139; PKD1 kinase fluorescence polarization assay; inhibition, %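 (about 10 µM by stock and volumes)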;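 active = inhibition of 50% or more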;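 note: controls were vehicle for no effect and a reference inhibitor for full effect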
Target sequence (Q15139 whole entry, looked up): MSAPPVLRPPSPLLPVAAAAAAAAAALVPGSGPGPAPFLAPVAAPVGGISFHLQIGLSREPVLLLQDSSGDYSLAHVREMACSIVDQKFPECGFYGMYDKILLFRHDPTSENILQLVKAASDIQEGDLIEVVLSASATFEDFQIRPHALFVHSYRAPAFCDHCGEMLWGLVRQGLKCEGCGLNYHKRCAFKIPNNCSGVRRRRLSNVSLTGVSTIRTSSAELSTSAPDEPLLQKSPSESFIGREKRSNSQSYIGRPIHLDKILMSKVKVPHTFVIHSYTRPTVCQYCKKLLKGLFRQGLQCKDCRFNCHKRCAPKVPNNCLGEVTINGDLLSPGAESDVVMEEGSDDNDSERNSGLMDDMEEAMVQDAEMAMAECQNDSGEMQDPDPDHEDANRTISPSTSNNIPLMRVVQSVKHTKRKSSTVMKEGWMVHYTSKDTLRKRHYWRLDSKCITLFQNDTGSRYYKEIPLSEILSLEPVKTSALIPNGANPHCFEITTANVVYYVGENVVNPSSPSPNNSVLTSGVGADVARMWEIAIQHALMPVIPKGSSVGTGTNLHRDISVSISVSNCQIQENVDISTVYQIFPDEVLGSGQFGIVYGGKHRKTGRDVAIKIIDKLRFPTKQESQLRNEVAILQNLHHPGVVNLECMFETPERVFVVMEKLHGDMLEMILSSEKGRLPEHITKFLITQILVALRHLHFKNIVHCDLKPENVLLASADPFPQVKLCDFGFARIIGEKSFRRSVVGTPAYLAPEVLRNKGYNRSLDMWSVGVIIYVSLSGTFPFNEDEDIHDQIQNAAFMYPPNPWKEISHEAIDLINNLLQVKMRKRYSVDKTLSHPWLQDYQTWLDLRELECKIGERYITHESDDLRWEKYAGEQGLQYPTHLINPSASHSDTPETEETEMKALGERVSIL
INS promoter inh: TRM-6 insulin promoter activity inhibition | TRM-6 cells (human fetal islet line), insulin promoter-eGFP reporter, imaging; reporter expression induced with tamoxifen | inhibition, % at 2 µM | 0.9% of 130,000 active;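 active = inhibition above the mean plus 3 SD, with well images judged a real hit on visual review, cut at about 60% in these data, passing the limit was not always enough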
INS promoter inh cell count: recorded beside INS promoter inh, whose call it bears; normalized cell count, %; measured here: cell count, toxicity; reference of the scale not given here;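 cells exposed to compound for 48 h; stained nuclei by imaging scaled within each plate; lower means fewer cells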
HSV replic up primary fold: second read-out of HSV replic up, no call of its own (marks repeat the call); fold increase; compound at 10 µM; measured here: primary screen fold increase 10 uM; tested in PC3 cells;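 GFP signal in the first replicate; 1 = infected wells without compound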
Numbers without * were called inactive.

Cc1ccc(N=CC2=C(O)CC(c3ccco3)CC2=O)cc1 (configuration not stated) was read as HSV replic up inactive, RGS16-Gao 97.4, GALR2 ag -1.9, PKD1 inh -7.5, INS promoter inh 8.1, INS promoter inh cell count 169.2 and HSV replic up primary fold 0.77.
Screening CCCCn1c(=O)c(CCC(=O)O)nc2ccccc21 returned HSV replic up inactive, RGS16-Gao 109.7, PKD1 inh -1.4, INS promoter inh -33.3, INS promoter inh cell count 63.0 and HSV replic up primary fold 0.93.
Screening Nc1c(Cl)ncnc1N/N=C/c1ccc2ccccc2n1 returned RGS16-Gao 105.8, GALR2 ag 0.8, PKD1 inh 2.2, INS promoter inh 34.5 and INS promoter inh cell count 55.0.
`CC(=O)NC(=O)c1nnn(Cc2ccccc2)c1NC(C)=O` gave HSV replic up inactive, RGS16-Gao 96.7, GALR2 ag -1.5, PKD1 inh 0.8, INS promoter inh 0.0, INS promoter inh cell count 77.8 and HSV replic up primary fold 1.02.
For O=C(Nc1cc(S(=O)(=O)N2CCOCC2)ccc1Cl)c1cc(=O)c2ccccc2o1 the results were HSV replic up inactive, RGS16-Gao 102.3, PKD1 inh -4.4, INS promoter inh 11.8, INS promoter inh cell count 124.6 and HSV replic up primary fold 0.83.
COc1ccc(NC2=NC(=S)N(c3cccc(C)c3)C23CCCCC3)cc1 was read as RGS16-Gao 109.6, GALR2 ag -0.2, PKD1 inh -5.1, INS promoter inh 0.0 and INS promoter inh cell count 95.0.
CC(C)C(=O)Nc1nnc(NC(=S)Nc2ccccc2)s1 was read as HSV replic up inactive, RGS16-Gao 102.2, PKD1 inh -7.0, INS promoter inh 41.7, INS promoter inh cell count 74.1 and HSV replic up primary fold 0.92.
Screening CCOCCOC(=O)c1ccc(-n2cncn2)nc1 returned HSV replic up inactive, RGS16-Gao 95.5, GALR2 ag -2.5, PKD1 inh -6.2, INS promoter inh -53.6, INS promoter inh cell count 172.9 and HSV replic up primary fold 1.05.
For Cc1ccc(-c2cc(C(=O)N/N=C/C(Br)=C/c3ccccc3)n[nH]2)o1 the results were HSV replic up inactive, RGS16-Gao 43.7, PKD1 inh 3.2 and HSV replic up primary fold 0.88.
`N/C(=N\OC(=O)Cc1ccccc1)c1ccc(Br)cc1` gave HSV replic up inactive, RGS16-Gao 113.6, GALR2 ag -0.5, PKD1 inh -4.5, INS promoter inh 57.9, INS promoter inh cell count 71.9 and HSV replic up primary fold 1.06.
Screening CCCC(C)NC(=O)Cc1ccccc1[N+](=O)[O-] (configuration not stated) returned HSV replic up inactive, RGS16-Gao 106.7, GALR2 ag 0.6, PKD1 inh -2.4, INS promoter inh -13.3, INS promoter inh cell count 111.7 and HSV replic up primary fold 0.96.
O=C(CCCn1c(=S)[nH]c2ccccc2c1=O)NCc1ccco1 was read as HSV replic up inactive, RGS16-Gao 97.3, GALR2 ag -2.3, PKD1 inh -13.7, INS promoter inh -243.8, INS promoter inh cell count 111.8 and HSV replic up primary fold 0.88.
Screening C/C(=N\Nc1ccccn1)c1ccc(C(C)C)cc1 returned HSV replic up inactive, RGS16-Gao 110.5, PKD1 inh -0.2 and HSV replic up primary fold 0.99.
N#C/C(=C\c1ccc([N+](=O)[O-])o1)c1nc2ccccc2[nH]1 was read as RGS16-Gao 66.1, GALR2 ag 0.4 and PKD1 inh -17.4.
CCN1CC(CN(C)Cc2nc(-c3ccc(Cl)cc3)no2)CC1=O (configuration not stated) was read as HSV replic up inactive, RGS16-Gao 113.7, PKD1 inh -5.3 and HSV replic up primary fold 1.07.
Screening COc1ccccc1NS(=O)(=O)c1cccc(NC(=O)c2[nH]c(C)c(C(C)=O)c2C)c1 returned HSV replic up inactive, RGS16-Gao 103.6 and HSV replic up primary fold 0.89.
Screening Nc1c(C(=O)NCc2ccc(Cl)cc2)sc2nc3c(c(C(F)(F)F)c12)CCC3 returned HSV replic up inactive, RGS16-Gao 103.4, GALR2 ag -2.5, PKD1 inh 2.6 and HSV replic up primary fold 0.85.
For CCOC(=O)CC1C(=O)NCCN1Cc1cccc(C(F)(F)F)c1 (configuration not stated) the results were HSV replic up inactive, RGS16-Gao 107.1, GALR2 ag -1.2, PKD1 inh 12.8 and HSV replic up primary fold 0.68.
`CC(=O)Nc1sc(C)c(C)c1C(=O)OCC(=O)Nc1cc(S(=O)(=O)N2CCCCC2)ccc1Cl` gave HSV replic up inactive, RGS16-Gao 91.6, GALR2 ag -0.6, PKD1 inh 2.6, INS promoter inh 0.0, INS promoter inh cell count 97.1 and HSV replic up primary fold 0.99.
`O=C(Cn1c(COc2ccc(Cl)cc2)nc2ccccc21)NCC(F)(F)F` gave RGS16-Gao 106.8, GALR2 ag -0.7 and PKD1 inh 2.9.
Screening COc1cc(C)ccc1OCCCOc1cc(C)ccc1Cl returned HSV replic up inactive, GALR2 ag -0.3, PKD1 inh 5.5, INS promoter inh 16.7, INS promoter inh cell count 54.9 and HSV replic up primary fold 0.81.
`COc1ccccc1Nc1c([N+](=O)[O-])cc(C)cc1[N+](=O)[O-]` gave HSV replic up inactive, RGS16-Gao 104.6, PKD1 inh 6.7, INS promoter inh -5.0, INS promoter inh cell count 84.8 and HSV replic up primary fold 1.04.
`CCC[N+](CC#Cc1ccccc1)(CCC)CC(=O)OC` gave HSV replic up inactive, RGS16-Gao 86.2, GALR2 ag -0.6, PKD1 inh -6.2 and HSV replic up primary fold 0.92.
For COc1ccc2c(c1)c(=O)oc1cc3occ(C(C)(C)C)c3cc12 the results were RGS16-Gao 98.4, GALR2 ag 0.6, PKD1 inh -1.1, INS promoter inh 14.3 and INS promoter inh cell count 138.2.
For CCn1c(Cc2cccn2C)nnc1SCC(=O)c1ccc(C)cc1 the results were HSV replic up inactive, RGS16-Gao 98.9, GALR2 ag -1.9, PKD1 inh 6.3, INS promoter inh 0.0, INS promoter inh cell count 81.5 and HSV replic up primary fold 0.99.
Screening Cn1c(NC(=O)c2ccc(Cl)cc2)c(-c2ccccn2)c(=O)c2ccccc21 returned HSV replic up inactive, RGS16-Gao 94.5, GALR2 ag -2.1, PKD1 inh -22.8, INS promoter inh 9.7, INS promoter inh cell count 85.5 and HSV replic up primary fold 0.93.
Screening COCCn1c(=O)[nH]c(=O)c2cc(C(=O)c3cc(Cl)ccc3O)cnc21 returned HSV replic up inactive, RGS16-Gao 98.5, PKD1 inh -9.9 and HSV replic up primary fold 0.95.
CC(C)(C)NC(=O)NC(=O)COC(=O)Cc1c(Cl)cccc1Cl was read as HSV replic up inactive, RGS16-Gao 101.1, PKD1 inh -9.6, INS promoter inh -13.3, INS promoter inh cell count 108.9 and HSV replic up primary fold 1.04.
For COc1ccc(CC(=O)Nc2cccc(/C(C)=N/NC(=O)c3cccc([N+](=O)[O-])c3)c2)cc1 the results were HSV replic up inactive, RGS16-Gao 89.3, GALR2 ag -0.2, PKD1 inh -4.2 and HSV replic up primary fold 1.01.
For COCCCN(C)C1CCN(C(=O)Nc2ccc(F)cc2)CC1 the results were HSV replic up inactive, RGS16-Gao 103.8, GALR2 ag -1.8, PKD1 inh -7.8 and HSV replic up primary fold 0.92.
For O=C(Nc1cc([N+](=O)[O-])ccc1F)c1ccc2c(c1)OCCO2 the results were HSV replic up inactive, RGS16-Gao 96.1, PKD1 inh -1.9, INS promoter inh 40.0, INS promoter inh cell count 165.8 and HSV replic up primary fold 0.81.
For CC(NC(=O)c1ccnc(C(C)(C)C)c1)c1ccccc1 (configuration not stated) the results were HSV replic up inactive, RGS16-Gao 97.6, GALR2 ag -0.1, PKD1 inh -15.1, INS promoter inh -200.0, INS promoter inh cell count 118.5 and HSV replic up primary fold 1.06.
Screening Cc1cc(NC(=O)CCCn2nc([N+](=O)[O-])c(Br)c2C)no1 returned HSV replic up inactive, RGS16-Gao 100.2, PKD1 inh -3.1, INS promoter inh -13.3, INS promoter inh cell count 130.4 and HSV replic up primary fold 0.95.
Screening COc1cccc(C(c2nnnn2Cc2ccco2)N2CCN(c3cccc(C)c3C)CC2)c1OC (configuration not stated) returned HSV replic up inactive, RGS16-Gao 98.4, GALR2 ag -2.3, PKD1 inh 2.8, INS promoter inh 16.1, INS promoter inh cell count 85.7 and HSV replic up primary fold 0.99.
Screening CCOc1ccc(S(=O)(=O)NCc2cccnc2)cc1C returned HSV replic up inactive, RGS16-Gao 106.8, PKD1 inh 2.1, INS promoter inh 22.2, INS promoter inh cell count 64.8 and HSV replic up primary fold 0.97.
For Cc1ccc(S(=O)(=O)N(C)CC(=O)O/N=C(\N)c2ccc([N+](=O)[O-])cc2)cc1 the results were HSV replic up inactive, RGS16-Gao 102.7, GALR2 ag -1.4, PKD1 inh -4.6, INS promoter inh -33.3, INS promoter inh cell count 75.2 and HSV replic up primary fold 0.97.
For Cc1cc(C)nc(N2CCN(C(=O)c3ccc(S(=O)(=O)N4CCCCCC4)cc3)CC2)n1 the results were HSV replic up inactive, RGS16-Gao 102.9, PKD1 inh 0.5, INS promoter inh -5.6, INS promoter inh cell count 70.3 and HSV replic up primary fold 0.9.
Screening NC(=O)CC(NC(=O)Cc1ccc(Br)cc1)c1ccc(NC2CCCCCC2)c([N+](=O)[O-])c1 (configuration not stated) returned HSV replic up inactive, RGS16-Gao 105.7 and HSV replic up primary fold 0.76.
Cc1cccc(NC(=O)COc2cccc3c2CCN(C)C3=O)c1 was read as HSV replic up inactive, RGS16-Gao 100.5, PKD1 inh -4.0 and HSV replic up primary fold 0.98.
For O=C(Cc1ccc(Cl)cc1Cl)OCC(=O)c1ccc[nH]1 the results were HSV replic up inactive, RGS16-Gao 100.4, GALR2 ag -1.8, PKD1 inh -2.5 and HSV replic up primary fold 0.98.

Reprinted from the part before: 4 entries, then new ones.
For Cc1cc(C)nc(N2CCN(C(=O)c3ccc(S(=O)(=O)N4CCCCCC4)cc3)CC2)n1 the results were HSV replic up inactive, RGS16-Gao 102.9, PKD1 inh 0.5, INS promoter inh -5.6, INS promoter inh cell count 70.3 and HSV replic up primary fold 0.9.
Screening NC(=O)CC(NC(=O)Cc1ccc(Br)cc1)c1ccc(NC2CCCCCC2)c([N+](=O)[O-])c1 (configuration not stated) returned HSV replic up inactive, RGS16-Gao 105.7 and HSV replic up primary fold 0.76.
Cc1cccc(NC(=O)COc2cccc3c2CCN(C)C3=O)c1 was read as HSV replic up inactive, RGS16-Gao 100.5, PKD1 inh -4.0 and HSV replic up primary fold 0.98.
For O=C(Cc1ccc(Cl)cc1Cl)OCC(=O)c1ccc[nH]1 the results were HSV replic up inactive, RGS16-Gao 100.4, GALR2 ag -1.8, PKD1 inh -2.5 and HSV replic up primary fold 0.98.
Screening O=C1CN(C(=O)COC(=O)c2cc(S(=O)(=O)N3CCOCC3)ccc2Cl)c2ccccc2N1 returned HSV replic up inactive, RGS16-Gao 107.3 and HSV replic up primary fold 0.95.
`CN(C(=O)c1ccccc1Cl)c1ccccc1` gave HSV replic up inactive, RGS16-Gao 101.8, GALR2 ag -2.0, PKD1 inh 2.0, INS promoter inh -119.0, INS promoter inh cell count 68.7 and HSV replic up primary fold 1.06.
`CC(=O)C1=C(O)C(=O)N(CCCn2ccnc2)C1c1ccc(Br)cc1` (configuration not stated) gave HSV replic up inactive, RGS16-Gao 112.1, PKD1 inh -0.7, INS promoter inh -346.7, INS promoter inh cell count 55.8 and HSV replic up primary fold 1.01.
For CCOC(=O)CCn1c(=O)c2c(nc(Br)n2Cc2ccccc2)n(C)c1=O the results were HSV replic up inactive, RGS16-Gao 109.6, GALR2 ag 0.4, PKD1 inh 8.6 and HSV replic up primary fold 0.98.
Screening O=C(c1ccccc1)N(Nc1ccccc1)c1ccccc1 returned HSV replic up inactive, RGS16-Gao 98.7, PKD1 inh -1.1, INS promoter inh 28.6, INS promoter inh cell count 108.4 and HSV replic up primary fold 1.03.
For COc1ccc(S(=O)(=O)c2ccc(OC)c(OC)c2)cc1OC the results were HSV replic up inactive, RGS16-Gao 96.8, GALR2 ag -2.1, PKD1 inh -4.5 and HSV replic up primary fold 0.89.
For O=c1cc(-c2ccccc2)[nH]c2ccc(F)cc12 the results were HSV replic up inactive, RGS16-Gao 101.3, GALR2 ag -0.4, PKD1 inh 7.5, INS promoter inh -81.0, INS promoter inh cell count 9.1 and HSV replic up primary fold 0.57.
Screening CCCCNC(=O)CCN1N=C(c2ccccc2)CCC1=O returned HSV replic up inactive, RGS16-Gao 111.0, PKD1 inh -2.3, INS promoter inh -136.4, INS promoter inh cell count 60.6 and HSV replic up primary fold 0.9.
Screening O=C(NNC(=O)c1cccnc1)NC1CCCCC1 returned HSV replic up inactive, RGS16-Gao 100.0, PKD1 inh -3.0 and HSV replic up primary fold 1.04.
For CC(=O)Oc1ccc2oc(=O)c3c(c2c1)CCCN3C(=O)CN1CCOCC1 the results were HSV replic up inactive, RGS16-Gao 97.1, PKD1 inh 0.2, INS promoter inh 6.7, INS promoter inh cell count 93.8 and HSV replic up primary fold 0.89.

No enrichment for hits (roughly 1.3% active in at least one column).
